Ab BasE inh – blocks the Acinetobacter baumannii siderophore enzyme BasE; purified BasE, fluorescence polarization binding displacement; inhibition, % (test concentration not listed); 84,000 compounds, 0.1% hits;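 active = both replicates above 25% with normal brightness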;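 also: 0% = negative plate control signal and 100% = positive plate control signal; stock transfer was 100 nL into about 30 µL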
KSHV LANA nucl – LANA-nucleosome interaction inhibition; z-score (no concentration beside the values); FITC-LANA1-23 / chicken nucleosome fluorescence polarization; hits give low values; AID 720717; 51,000 compounds, 0.3% hits;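 active = both repeat wells score below -2 in polarization z-score versus plate sample wells, excluding overly bright wells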;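 also: 100 nL library stock added to about 30 µL; numbers are from one replicate; some results filed as inactive read as strong as hits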
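Assay system: purified chicken nucleosomes with FITC-labelled LANA N-terminal peptide (1-23) / Probe or stimulus: 50 nM FITC-LANA1-23 probe / Compound dosing: pin-transferred compound, 100 nL / Times: compound with peptide–nucleosome mix 10–45 min at room temperature / Technique: fluorescence polarization, 480 nm excitation, 535 nm parallel and perpendicular emission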
Numbers without * were called inactive; . = no result given.

no.	compound	Ab BasE inh	KSHV LANA nucl
1	CCCNC(=O)c1cc(-c2cccnc2)nc2ccccc12	-0.8	-0.11
2	Cc1ccc(S(=O)(=O)N/N=C2/CSCC2NC(=O)c2ccccc2)cc1 (stereo not given)	0.5	-0.49
3	CCC(=O)c1ccc(OCC(=O)NCCCN2CCCC2=O)cc1	1.6	.
4	N#Cc1ccc(NC(=O)CONC2=NCCCCC2)cc1	2.6	.
5	COc1cccc(C(O)c2nccn2C)c1OC (stereo not given)	1.7	.
6	CC1=C(C(=O)Nc2ccc(C(=O)NCc3cccnc3)cc2)SCCO1	-2.1	2.4
7	CCOC(=O)C1CCN(C(=O)c2ccc3c(=O)n4nc(Nc5ccccc5OC)sc4nc3c2)CC1	-0.1	-1.3
8	COc1ccc(NC(=O)NCCCN2CCCc3ccccc32)c(OC)c1	3.1	0.26
9	O=S(=O)(NN1CCOCC1)c1cc(S(=O)(=O)c2ccccc2)cs1	1.8	.
10	O=C(OC1CCOC1=O)c1c2c(nc3ccccc13)CCCCC2 (stereo not given)	-2.2	.
11	COC(=O)C(C(=O)OC)=C(SC)SC	4.7	-0.31
12	COc1cc(/C=C/C(=O)N2CCC(c3nc4ccccc4o3)CC2)cc2c1OCCO2	-1.9	.
13	N=C1/C(=C/c2cccn2Cc2ccc(Cl)cc2)C(=O)N=C2SC=CN12	1.1	.
14	COc1ccc(SCC(=O)c2cc(C)n(C3CC3)c2C)cc1	0.7	.
15	Cc1onc(-c2ccccc2)c1NC(=O)Nc1ccc(-n2ccc(C(F)(F)F)n2)cc1	2.3	-0.85
16	Cc1c(C(=O)Nc2cc(-c3cccc(F)c3)no2)sc2nc3n(c(=O)c12)CCCCC3	0.0	0.98
17	CN1c2ccccc2C(C)(C)C12CCCC(=O)N2 (stereo not given)	-0.7	-0.66
18	Cc1ccccc1NC(=O)COc1ccc(N2CC(C(N)=O)CC2=O)cc1 (stereo not given)	-3.4	-0.09
19	CCCCOC(=O)Nc1ccc(C(N)=O)cc1	-1.9	-1
20	CSc1ccc(-c2cccc(F)c2F)cc1	.	-0.004
21	COC(=O)C(C)Oc1cc2oc(=O)c3c(c2cc1Cl)CCC3 (stereo not given)	1.0	0.24
22	CCOC(=O)c1cc(-c2ccc(OC)c(S(=O)(=O)N3CCCc4ccccc43)c2)on1	-2.5	0.44
23	O=C(CSC1=NCCS1)c1ccc2c(c1)OCCO2	-1.4	0.86
24	NNC(=O)c1sc(-c2ccccc2)cc1N	3.9	.
25	CC(C)CNCC1OCCCCO1	-0.1	-0.06
26	O=C(CCn1c(=S)[nH]c2ccccc2c1=O)N1CCc2ccccc2C1	1.1	-0.074
27	CC(C)OC(=O)CSc1nnc(-c2ccc(O)cc2)n1-c1ccccc1	1.0	-0.44
28	Cn1cc(CCC(=O)N2CCC(C(N)=O)CC2)c2ccccc21	4.7	0.64
29	CCN(C1=NS(=O)(=O)c2ccccc21)c1ccccc1	0.8	.
30	Cc1nc(NN)nc(NCc2ccccc2)n1	0.6	-0.94
31	Cc1nn(-c2ccccc2)c(C)c1NC(=S)NC(=O)c1cccs1	1.6	0.36
32	CC(C)N(CC(=O)c1cccs1)Cc1ccccc1	2.7	.
33	Cc1ccc(CCC(=O)Nc2ccc(C(C)C)cc2)o1	-0.4	-0.081
34	Cc1c(-c2nc3cc(Cl)ccc3n2Cc2ccccc2)cc(C#N)n1C	2.4	.
35	CCc1cc(C(=O)O)no1	-0.5	-0.27
36	CCN(C1CCCCC1)S(=O)(=O)c1cccc(S(=O)(=O)N2CCCC2)c1	-2.2	1
37	C=CCN(CC=C)C(=O)CN1C(=O)c2ccccc2C1=O	-0.3	0.52
38	CN(C)C(CC(=O)Nc1ccc(Nc2ccccc2)cc1)C(=O)O (stereo not given)	0.4	0.19
39	CCC(C)NC(=O)NCc1ccccc1F (stereo not given)	-1.4	0.62
40	O=S1(=O)N=CNc2ccc(S(=O)(=O)Nc3ccccc3)cc21	1.6	-1
41	CCCCc1c(O)nc(SCC(=O)N2CCCCC2)[nH]c1=O	3.6	.
42	O=C(NCCCO)c1cc2sc3ccccc3c2s1	-0.5	-0.38
43	Fc1cccc(-c2cc3nc4c(c(NCCCN5CCOCC5)n3n2)CCCC4)c1	-0.3	-0.94
44	CCOc1ccc(NC(=O)c2ccc3c(c2)S(=O)(=O)N=C2CCCCCN23)cc1	-3.4	.
45	O=C(Nc1ncn[nH]1)c1cccc(Br)c1	-0.5	1.1
46	CCCCn1c(-c2cccc(Br)c2)nc2ccccc21	2.4	0.37
47	Cc1ccc(NC(=O)CCn2c(=O)c3cccn3c3ccccc32)cc1	2.1	-0.3
48	C/C(c1cccs1)=[N+](/[O-])C(C)/C(=N/O)c1ccco1 (stereo not given)	2.4	.
49	CC1(C)Oc2ccc(C(=O)N/N=C/c3cccs3)cc2NC1=O	-2.0	0.091
50	Nc1c(NCC(c2ccco2)N2CCCCC2)c(=O)[nH]c(=O)n1Cc1ccccc1 (stereo not given)	-0.5	.
51	COc1ccccc1C(=O)Nc1ccccc1-c1nnn(CC(=O)N2CCN(c3ccc(F)cc3)CC2)n1	2.3	-0.2
52	CCOC(=O)CCn1cc(/C=C(\C#N)C(N)=S)c(-c2ccccc2)n1	2.0	.
53	O=C(Nc1ccc(Cl)cc1)C1CCCCC1	0.1	-1.6
54	COC(=O)C1=C(C)NC2=C(C(=O)CC(c3ccc(Cl)cc3)C2)C1c1ccccc1 (stereo not given)	1.3	.
55	CCc1ccc(NC(=O)CSC)cc1	-0.2	-0.37
56	COC(=O)C1CSCN1C(=O)Nc1ccccc1 (stereo not given)	-0.2	.
57	COc1ccc(C(=O)OCc2cc(C)on2)cc1Br	-0.7	.
58	CCOC(=O)C1CC1c1ccccc1 (stereo not given)	0.6	-0.1
59	Clc1cccc(C=NN2CCN(Cc3ccccc3)CC2)c1Cl	1.5	.
60	N#Cc1c(-c2cccnc2)c2c([nH]c1=O)-c1ccccc1CC2	-0.9	.

Remaining list, next part:
no.	compound	Ab BasE inh	KSHV LANA nucl
61	O=C(c1ccc(NS(=O)(=O)c2ccccc2)cc1)N1CCCC1	1.3	-1.3
62	CC1(C)CN(c2ccc(N3CC(C)(C)C3=O)cc2)C1=O	.	-0.52
63	Cn1cnnc1SCC(=O)NCc1cccc(C(F)(F)F)c1	3.5	.
64	CCN(CC(=O)NCc1ccc(F)cc1)C(=O)c1cccnc1SC	0.9	.
65	CCNc1cc(Cl)nc(SC)n1	.	-0.56
66	CCOC(=O)c1c(N2C(=O)CCC2=O)sc2c1CCC(C)C2 (stereo not given)	-2.5	2.7
67	Cc1ccc(CN(C(=O)c2ccccc2)C2CCS(=O)(=O)C2)cc1 (stereo not given)	0.8	0.11
68	Cc1ccc(-c2nc3c(cnn3-c3ccccc3)c(=O)n2-c2cccc(C)c2)cc1	0.1	.
69	Cc1cccc(Cl)c1NC(=S)NC(Cc1ccccc1)c1ccccc1 (stereo not given)	0.5	.
70	CC1=C(C(=O)c2ccccc2)C(c2ccc(F)cc2)NC(=O)N1 (stereo not given)	1.9	.
71	CC(C)(C)n1nnnc1C(c1ccc2ncccc2c1)N1CCOCC1 (stereo not given)	-1.7	0.57
72	CCOC(=O)c1cnc(Nc2nc3ccccc3o2)nc1CSc1ncccn1	0.5	-0.46
73	COc1cc(C(=O)OCC(=O)c2cc(C)n(C3CC3)c2C)cc2c1OCCO2	0.4	.
74	CC(C)(C)OC(=O)N/N=C\c1cccs1	-0.6	-0.58
75	CCN(CC)C(=O)Cn1cc(C(=O)C(C)C)c2ccccc21	0.3	0.13
76	N#C/C(=C\N1CCC(n2cccc2)CC1)C(=O)c1ccccc1	2.5	-1.1
77	Cc1nc(NC(=O)c2oc3ccccc3c2C)sc1C(=O)N(C)C	-5.5	-1.7
78	O=C1C=C(Nc2ccccc2)CC(c2ccccc2)C1 (stereo not given)	-0.8	0.54
79	CCS(=O)(=O)Nc1cc(C(C)(C)C)on1	-2.6	0.56
80	O=C(O)/C=C\C(=O)N1CCN(c2nc(-c3ccccc3)ns2)CC1	1.3	.
81	COCc1c(C(=O)OCc2cc(Cl)cc3c2OCOC3)oc2ccccc12	2.2	.
82	Brc1ccc(-n2cccc2)nc1	0.9	0.46
83	O=C(Nc1ccc(S(=O)(=O)Nc2ncccn2)cc1)C1=NN(c2ccccc2)C(=O)CC1	-2.2	.
84	CCN(C(=O)CCn1c(=O)sc2ccccc21)c1cccc(C)c1	0.4	-0.088
85	CCn1c(-c2cccs2)c(CNC(=O)NCc2ccccc2)c2ccccc21	-1.3	-0.79
86	FC(F)(F)c1cc(Sc2ccccc2)nc(-c2ccccn2)n1	.	1.1
87	CC(C)C(=O)Nc1ccc(N)cc1	1.9	.
88	CC(OC(=O)Cn1cnc2ccccc2c1=O)C(=O)NCc1ccccc1 (stereo not given)	6.1	.
89	COc1ccc(OCC(=O)N/N=c2\oc3c(OC)cccc3cc2C(N)=O)cc1	0.5	-0.58
90	CCOC(=O)c1csc(-c2cccc(C(F)(F)F)c2)n1	.	2.3

Complete entries as entered above. Order of values: Ab BasE inh | KSHV LANA nucl
Record of `FC(F)(F)c1cc(Sc2ccccc2)nc(-c2ccccn2)n1` = . | 1.1
Record of `CCS(=O)(=O)Nc1cc(C(C)(C)C)on1` = -2.6 | 0.56

The list continues.
no.	compound	Ab BasE inh	KSHV LANA nucl
91	Cc1cc(C)c2c(=O)[nH]c(SCC(=O)Nc3ccccc3)nc2n1	-3.2	.
92	Cc1noc(C)c1COc1cc2ccccc2cc1C(=O)O	-1.1	.
93	COc1ccc(C2C(=O)N(C3CCCCC3)CC(=O)N2Cc2ccccc2)cc1 (stereo not given)	-4.2	2.2
94	CCOC(=O)c1oc2ccccc2c1COC(=O)c1ccc(S(C)(=O)=O)cc1	-0.1	.
95	O=C(NCCN1CCOCC1)c1ccc(NC(=O)C2COc3ccccc3O2)cc1 (stereo not given)	-1.1	0.29
96	NNC(=O)c1csc(-c2cccs2)n1	0.7	.
97	CC(=O)N1CC=C2C(C#N)=C(N)C(C#N)(C#N)C(Cc3ccccc3)C2C1 (stereo not given)	-0.3	-0.78
98	O=C(Cc1cc(=O)[nH]c(=O)[nH]1)N1CCCCC1	1.3	-0.35
99	CCOC(=O)c1[nH]c(=O)c2ccccc2c1O	-1.1	0.48
100	Cc1ccc(SC(C)C(=O)NC(C)(C)C)cc1 (stereo not given)	0.2	0.51
101	NNC(=S)NCc1ccccc1	2.7	.
102	Cc1cccc(NC(=S)N(CCCNC2=CC(=O)CC(C)(C)C2)C2CCCCC2)c1	1.8	.
103	OCCN(Cc1ccccc1)Cc1ccc(C(F)(F)F)cc1	1.2	-0.16
104	COC(=O)C1=C(CN2CCCCC2)NC(=O)NC1c1ccccc1Cl (stereo not given)	-1.8	-0.68
105	COc1cc(/C=C/C(=O)/C=C/c2ccc(N(C)C)cc2)cc(OC)c1OC	9.4	.
106	CC(C)CC(=O)Nc1ccc(NC(=O)CC(C)C)cc1	1.8	-1.1
107	CCNC(=S)NCCc1ccncc1	-3.0	-1
108	CCc1ccc(Nc2nnc(SCC(=O)NC(=O)c3cccn3C)s2)cc1	0.5	.
109	Clc1ccc(-c2nnsc2Cl)cc1	.	-0.36
110	CCOC(=O)C1=C(N)Oc2cc(C)oc(=O)c2C1c1ccccc1F (stereo not given)	28*	-0.57
111	Cc1nc2nc(C(F)(F)F)[nH]n2c(=O)c1Cc1ccccc1	2.5	0.081
112	Cn1c(C(=O)NCCC2=CCCCC2)cc2oc3ccccc3c21	2.4	1.3
113	C=CCn1c(COc2cccc(C)c2)nnc1SCC(=O)NC(C)(C#N)C(C)C (stereo not given)	0.9	.
114	CC(C)C(=O)Nc1cccc(C(=O)NCc2ccc3c(c2)OCO3)c1	1.0	0.92
115	Cc1ccc(-c2nn(-c3ccccc3)c3[nH]c(=O)c(CNCCN4CCOCC4)cc23)cc1	0.8	0.03
116	NC(N)=NS(=O)(=O)c1ccc(NC(=O)c2ccco2)cc1	0.4	.
117	CC(Sc1nnc(-c2c[nH]c3ccccc23)n1C1CC1)C(=O)N(C)C1(C#N)CCCCC1 (stereo not given)	4.0	.
118	Cc1ccc(-c2nnc(SCCC(=O)Nc3ccccc3)n2C)cc1	1.7	0.099
119	CSC1=C(C#N)C(c2ccco2)C(C(=O)Nc2ccccc2C)=C(C)N1 (stereo not given)	2.1	-0.5
120	S=c1[nH]c(=S)c2cnn(-c3ccccc3)c2[nH]1	1.5	-0.12

A draw from above in order of heavy-atom count, lowest first.
no.	compound	Ab BasE inh	KSHV LANA nucl
116	NC(N)=NS(=O)(=O)c1ccc(NC(=O)c2ccco2)cc1	0.4	.
92	Cc1noc(C)c1COc1cc2ccccc2cc1C(=O)O	-1.1	.
112	Cn1c(C(=O)NCCC2=CCCCC2)cc2oc3ccccc3c21	2.4	1.3
114	CC(C)C(=O)Nc1cccc(C(=O)NCc2ccc3c(c2)OCO3)c1	1.0	0.92
119	CSC1=C(C#N)C(c2ccco2)C(C(=O)Nc2ccccc2C)=C(C)N1 (stereo not given)	2.1	-0.5
94	CCOC(=O)c1oc2ccccc2c1COC(=O)c1ccc(S(C)(=O)=O)cc1	-0.1	.
102	Cc1cccc(NC(=S)N(CCCNC2=CC(=O)CC(C)(C)C2)C2CCCCC2)c1	1.8	.

Going on with the list:
no.	compound	Ab BasE inh	KSHV LANA nucl
121	O=C(CCCOc1ccccc1)Nc1nccs1	-2.1	0.99
122	Cc1sc2c(c1C)c(=O)nc1n2Cc2ccccc2-1	-0.1	.
123	Cc1c(C)c(C)c(CN2CCCC2)c(C)c1C	1.2	-0.58
124	O=c1[nH]c(SC/C=C/c2ccccc2)nc2sc3c(c12)CCC3	0.6	.
125	Cc1cc2c(N=NC(=O)Nc3ccccc3)c(O)[nH]c2cc1Br	1.9	2

Not all compounds are listed; count on the stated rates, not on these rows.
